Assay outcomes deposited in PubChem BioAssay by Broad Institute.
Vaccinia stage – Vaccinia orthopox stage-specific inhibition; Vaccinia-infected cells, mCherry/Venus stage reporter fluorescence; hits give low values; some inactives read as strong as hits; activity change (mCherry), % (concentration not given with the values); 0.01% of 89,000 active; AID 1053133;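 active = mCherry past -33% and 40 or more points under the early reporter, replicates agreeing; inconclusive = past -33% without that gap or agreement; tested in A549 cells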;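 note: scaled between vehicle wells and reference inhibitor wells; 23 nL library stock went into each well; one replicate is shown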
Vaccinia stage Venus – recorded beside Vaccinia stage, whose call it bears; activity change (Venus), %; measured here: Venus reporter, other viral stage;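 negative = less Venus signal; first of two replicates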
Starred values were filed as active, the others as inactive; ? = inconclusive; / = not tested or not shown; & = joins results of further samples.

Second line of a record: Vaccinia stage | Vaccinia stage Venus
> C[C@@H]1CN([C@H](C)CO)C(=O)c2cc(-c3ccncc3)cnc2O[C@H]1CN(C)C
  8 | 6
> COc1ccc(S(=O)(=O)Nc2ccc3c(c2)CC(=O)N([C@H](C)CO)C[C@H](C)[C@H](CN(C)Cc2ccc4c(c2)OCO4)O3)cc1
  -16 | -12
> CO[C@H]1CN(C)C(=O)c2ccc(NS(=O)(=O)c3cn(C)cn3)cc2OC[C@H](C)N(CCC(F)(F)F)C[C@H]1C
  11 | 13
> O=C(NC[C@H]1CC[C@H]2[C@H](CN2Cc2cccnc2)O1)C1CC1
  2 | 7
> CC(=O)N(C)C[C@@H]1Oc2ncc(-c3cccc(C#N)c3)cc2C(=O)N([C@H](C)CO)C[C@@H]1C
  16 | 10
> CO[C@H]1CN(C)C(=O)c2ccc(NC(=O)C3CCCC3)cc2OC[C@@H](C)N(CCC(F)(F)F)C[C@H]1C
  -6 | -7
> C[C@H]1CN([C@@H](C)CO)S(=O)(=O)c2ccc(C3=CCCC3)cc2O[C@H]1CN(C)C(=O)Nc1ccc2c(c1)OCO2
  ? | /
> Cc1ccc(S(=O)(=O)Nc2ccc3c(c2)CC(=O)N([C@H](C)CO)C[C@H](C)[C@@H](CN(C)C(=O)Nc2ccc(F)cc2)O3)cc1
  6 | 3
> Cc1noc(C)c1S(=O)(=O)Nc1ccc2c(c1)C(=O)N([C@H](C)CO)C[C@@H](C)[C@@H](CN(C)Cc1ccncc1)O2
  14 | 12
> COCC(=O)N(C)C[C@H]1Oc2cc(-c3ccccc3)ccc2S(=O)(=O)N([C@@H](C)CO)C[C@H]1C
  7 | -7
> C[C@@H](NC(=O)C[C@H]1CC[C@@H](NS(=O)(=O)c2cccc(F)c2)[C@H](CO)O1)c1ccccc1
  0 | -2
> O=C(O)C[C@@H]1C=C[C@H](NC(=O)c2ccncc2)[C@@H](CO)O1
  -1 | 5
> Cc1ccccc1-c1cnc2c(c1)C(=O)N([C@@H](C)CO)C[C@@H](C)[C@@H](CN(C)C(=O)c1cccnc1)O2
  1 | 3
> Cc1ccc(S(=O)(=O)Nc2cccc3c2O[C@H](CN(C)C(=O)Nc2ccc4c(c2)OCO4)[C@@H](C)CN([C@H](C)CO)C3=O)cc1
  7 | 10
> O=C(c1cccnc1)N1C[C@@H]2[C@H](c3ccccc31)[C@@H](CO)N2C(=O)C1CCCC1
  -3 | 10
> COc1cccc(-c2ccc([C@@H]3[C@@H](CO)N4CCCCN(C(=O)NC(C)C)C[C@H]34)cc2)c1
  -6 | -11
> C[C@@H]1CN([C@H](C)CO)C(=O)c2cccc(NS(=O)(=O)c3ccc(F)cc3)c2O[C@@H]1CN(C)C(=O)NC1CCCCC1
  -15 | -4
> C[C@@H]1CN([C@H](C)CO)C(=O)c2cccc(NC(=O)C3CCCCC3)c2O[C@H]1CN(C)Cc1ccc(C(=O)O)cc1
  8 | 17
> COc1ccc(CN(C)C[C@@H]2OCCCC[C@@H](C)Oc3ccc(NC(=O)c4ccncc4)cc3C(=O)N([C@@H](C)CO)C[C@H]2C)cc1
  4 | 9
> CC(C)NC(=O)N(C)C[C@@H]1Oc2cc(C#Cc3cccc(F)c3)ccc2S(=O)(=O)N([C@@H](C)CO)C[C@H]1C
  ? | /
> O=C(C[C@H]1C[C@H]2c3cc(NC(=O)Nc4ccccc4F)ccc3O[C@H]2[C@@H](CO)O1)NCc1ccc(Oc2ccccc2)cc1
  -7 | -2
> CC(C)CC#Cc1cnc2c(c1)C(=O)N([C@H](C)CO)C[C@@H](C)[C@@H](CN(C)C(=O)c1ccc(F)cc1)O2
  -14 | -10
> O=C(NCC1CCCCC1)[C@@H]1[C@@H](CO)[C@@H]2Cn3c(cccc3=O)[C@@H]2N1Cc1ccccn1
  4 | 6
> COc1ccc(NC(=O)N(C)C[C@@H]2Oc3cc(C#CCN(C)C)ccc3S(=O)(=O)N([C@@H](C)CO)C[C@@H]2C)cc1
  26 | 14
> COc1ccc2c3c(n(C)c2c1)[C@H](CO)N(CC1CCCC1)CC31CCN(C(C)=O)CC1
  9 | 10
> O=C(C[C@@H]1CC[C@H](NC(=O)C2CC2)[C@@H](CO)O1)Nc1ccccc1
  -11 | -14
> C[C@@H]1CN([C@H](C)CO)C(=O)Cc2cc(NC(=O)Cc3ccccc3)ccc2O[C@@H]1CN(C)S(C)(=O)=O
  10 | 11
> COc1ccc(NC(=O)Nc2ccc3c(c2)C(=O)N([C@@H](C)CO)C[C@H](C)[C@H](CN(C)S(=O)(=O)c2ccc(Cl)cc2)O3)cc1
  4 | 16
> COCC#Cc1cnc2c(c1)C(=O)N([C@H](C)CO)C[C@H](C)[C@H](CN(C)S(=O)(=O)c1cccc(OC)c1)O2
  1 | -5
> C[C@H]1CN([C@@H](C)CO)C(=O)c2cc(NC(=O)Nc3ccc(C(F)(F)F)cc3)ccc2O[C@H]1CN(C)S(=O)(=O)c1ccccc1
  -30 | -20

Reprinted from the part before: 5 entries; new compounds follow.
Second line of a record: Vaccinia stage | Vaccinia stage Venus
> O=C(C[C@@H]1CC[C@H](NC(=O)C2CC2)[C@@H](CO)O1)Nc1ccccc1
  -11 | -14
> C[C@@H]1CN([C@H](C)CO)C(=O)Cc2cc(NC(=O)Cc3ccccc3)ccc2O[C@@H]1CN(C)S(C)(=O)=O
  10 | 11
> COc1ccc(NC(=O)Nc2ccc3c(c2)C(=O)N([C@@H](C)CO)C[C@H](C)[C@H](CN(C)S(=O)(=O)c2ccc(Cl)cc2)O3)cc1
  4 | 16
> COCC#Cc1cnc2c(c1)C(=O)N([C@H](C)CO)C[C@H](C)[C@H](CN(C)S(=O)(=O)c1cccc(OC)c1)O2
  1 | -5
> C[C@H]1CN([C@@H](C)CO)C(=O)c2cc(NC(=O)Nc3ccc(C(F)(F)F)cc3)ccc2O[C@H]1CN(C)S(=O)(=O)c1ccccc1
  -30 | -20
> C/C=C/c1ccc2c(c1)O[C@@H](CN(C)C(=O)Cc1cccnc1)[C@H](C)CN([C@@H](C)CO)S2(=O)=O
  8 | 5
> COc1ccccc1-c1ccc2c(c1)[C@@H]1[C@@H](CCN1C(=O)C1CCOCC1)[C@@H](CO)N2
  -21 | -5
> C[C@@H]1CCCCO[C@@H](CN(C)C(=O)Nc2ccc(C(F)(F)F)cc2)[C@@H](C)CN([C@H](C)CO)C(=O)c2cc(NS(=O)(=O)c3ccc(F)cc3)ccc2O1
  -17 | -1
> C[C@H]1CN([C@@H](C)CO)C(=O)c2cccc(NC(=O)C3CCOCC3)c2O[C@@H]1CN(C)Cc1ccc(C(=O)O)cc1
  3 | -4
> C/C=C/c1ccc([C@@H]2[C@H](CO)N[C@H]2CNS(=O)(=O)c2ccccc2)cc1
  ? | /
> COc1ccc(S(=O)(=O)N(C)C[C@@H]2OCc3cnnn3CCCC(=O)N([C@@H](C)CO)C[C@@H]2C)cc1
  13&-1 | 7&1
> O=C(C[C@H]1CC[C@H](NC(=O)c2ccccn2)[C@H](CO)O1)NCc1cc(F)cc(F)c1
  0 | -5
> C[C@@H]1CN([C@H](C)CO)C(=O)c2cc(/C=C/c3ccccc3)cnc2O[C@@H]1CN(C)C(=O)C1CCCCC1
  -19 | -11
> CO[C@@H]1CN(C)C(=O)c2cc(NC(=O)c3ccc(F)cc3)ccc2OC[C@@H](C)N(C(C)=O)C[C@@H]1C
  31 | 0
> O=C(CCN1CCCCC1)N[C@H]1CC[C@H](CCNS(=O)(=O)c2ccccc2)O[C@@H]1CO
  3 | -5
> C[C@@H]1CN([C@@H](C)CO)S(=O)(=O)c2ccc(Br)cc2O[C@H]1CN(C)C(=O)Cc1cccnc1
  10 | 10
> COc1ccc(S(=O)(=O)Nc2ccc3c(c2)CC(=O)N([C@@H](C)CO)C[C@@H](C)[C@H](CN(C)C(=O)Nc2cccc4ccccc24)O3)cc1
  19 | 9
> C[C@@H]1CN([C@@H](C)CO)C(=O)c2cc(C#Cc3ccccc3F)cnc2O[C@H]1CN(C)S(=O)(=O)c1ccccc1
  -18 | -16
> O=C([C@H]1[C@H](CO)[C@H]2Cn3c(cccc3=O)[C@@H]1N2S(=O)(=O)c1ccccc1F)N1CCOCC1
  8 | -2
> C[C@@H](O)C#Cc1ccc([C@H]2[C@@H](CO)N3CCCCN(C(=O)c4ccc5c(c4)OCO5)C[C@H]23)cc1
  8 | 5
> COc1ccc(CN(C)C[C@@H]2Oc3ccc(NC(=O)CCC(F)(F)F)cc3CC(=O)N([C@@H](C)CO)C[C@@H]2C)cc1
  3 | 3
> C[C@@H]1CN([C@H](C)CO)C(=O)Cc2cc(NC(=O)Nc3ccc(C(F)(F)F)cc3)ccc2O[C@@H]1CN(C)Cc1ccc2c(c1)OCO2
  ? | /
> CO[C@@H]1CN(C)C(=O)c2cc(NC(=O)C3CC3)ccc2OC[C@H](C)NC[C@H]1C
  3 | -6
> CC(C)NC(=O)Nc1cccc2c1O[C@H](CN(C)S(=O)(=O)c1ccccc1)[C@@H](C)CN([C@H](C)CO)C2=O
  6 | 6
> C[C@H]1CN([C@@H](C)CO)C(=O)c2cc(NS(=O)(=O)c3cn(C)cn3)ccc2O[C@@H]1CN(C)C(=O)Nc1ccccc1
  17 | 13
> CCS(=O)(=O)Nc1ccc2c(c1)C(=O)N(C)C[C@H](OC)[C@@H](C)CN(C(=O)NC(C)C)[C@H](C)CO2
  1 | 2
> COc1ccc(S(=O)(=O)N(C)C[C@@H]2Oc3ccc(NS(C)(=O)=O)cc3C(=O)N([C@H](C)CO)C[C@H]2C)cc1
  6 | 13
> C[C@@H]1CCCCO[C@@H](CN(C)S(=O)(=O)c2cn(C)cn2)[C@@H](C)CN([C@@H](C)CO)C(=O)c2cc(NS(=O)(=O)c3ccc(F)cc3)ccc2O1
  20 | 19
> CCO[C@H]1OC(C(=O)N2CCOCC2)=C[C@@H](c2ccc3c(c2)OCO3)[C@@H]1CCCO
  35 | 14
> C[C@H]1CN([C@@H](C)CO)S(=O)(=O)c2ccc(C3=CCCC3)cc2O[C@@H]1CN(C)Cc1cccc(C(=O)O)c1
  -6 | -16
> Cc1cccc(S(=O)(=O)N2CCCCN3[C@H](CO)[C@@H](c4ccc(C#C[C@H](C)O)cc4)[C@@H]3C2)c1
  1 | -3
> C[C@H](CO)N1C[C@H](C)[C@H](CN(C)S(=O)(=O)c2cn(C)cn2)Oc2ccc(NC(=O)C3CC3)cc2CC1=O
  10 | 3
> C[C@@H]1CN([C@H](C)CO)S(=O)(=O)c2ccc(Br)cc2O[C@@H]1CN(C)Cc1ccccc1
  ? | /
> COc1ccc(S(=O)(=O)N(C)C[C@@H]2OCCCC[C@@H](C)Oc3ccc(NS(=O)(=O)c4cn(C)cn4)cc3C(=O)N([C@@H](C)CO)C[C@H]2C)cc1
  18 | 3
> CNC[C@H]1Oc2ccc(NS(C)(=O)=O)cc2C(=O)N([C@H](C)CO)C[C@H]1C
  30 | 24

The listing continues:
Structure	Vaccinia stage	Vaccinia stage Venus
COCC(=O)NC[C@H]1[C@@H](c2ccc(C3=CCCC3)cc2)[C@H](CO)N1C(=O)C1CC1	6	5
CC(C)NC(=O)Nc1ccc2c(c1)CC(=O)N([C@@H](C)CO)C[C@H](C)[C@H](CN(C)Cc1ccc(-c3ccccc3)cc1)O2	?	/
C[C@H]1CN([C@@H](C)CO)C(=O)c2c(c3ccccc3n2C)-c2ccccc2CO[C@H]1CN(C)C(=O)c1ccccc1	-21	-27
COc1ccc(S(=O)(=O)N(C)C[C@@H]2Oc3ccc(NC(=O)Nc4ccc(C(F)(F)F)cc4)cc3CC(=O)N([C@@H](C)CO)C[C@@H]2C)cc1	?	/
C[C@H]1CCCCO[C@H](CN(C)S(=O)(=O)c2cccs2)[C@@H](C)CN([C@@H](C)CO)C(=O)c2cc(NS(=O)(=O)c3ccc(Cl)cc3)ccc2O1	-33	-30
C[C@@H]1CCCCO[C@H](CN(C)C(=O)Cc2ccccc2)[C@@H](C)CN([C@H](C)CO)C(=O)c2cc(NS(=O)(=O)c3ccccc3)ccc2O1	20	8
CCC(=O)N(C)C[C@@H]1Oc2ncc(-c3ccccc3C)cc2C(=O)N([C@@H](C)CO)C[C@H]1C	13	6
CCCNC(=O)C[C@@H]1C[C@@H]2c3cc(NS(=O)(=O)c4ccc(F)cc4)ccc3O[C@@H]2[C@H](CO)O1	13	13
O=C(C[C@H]1CC[C@@H]2[C@H](COC[C@H](O)CN2C(=O)Nc2ccc(F)cc2)O1)NCCCN1CCOCC1	8	9
O=C(NCC[C@H]1CC[C@@H](NC(=O)c2ccncc2)[C@H](CO)O1)Nc1ccc(Cl)cc1	12	20
C[C@H](CO)N1C[C@H](C)[C@@H](CN(C)Cc2ccncc2)OCCCC[C@H](C)Oc2ccc(NC(=O)Nc3cccc4ccccc34)cc2C1=O	3	-3
CC(C)CC#Cc1ccc2c(c1)O[C@H](CN(C)C(=O)Cc1cccnc1)[C@H](C)CN([C@@H](C)CO)S2(=O)=O	-32	-21
C[C@@H]1CN([C@@H](C)CO)C(=O)c2cccc(NC(=O)c3ccc(-c4nccs4)cc3)c2O[C@@H]1CN(C)C(=O)NC1CCCCC1	?	/
C[C@@H]1CN([C@@H](C)CO)C(=O)c2cc(-c3cccc(F)c3)cnc2O[C@@H]1CN(C)Cc1cncnc1	19	3
CC(=O)N1CC2(C1)[C@@H](c1ccc(-c3ccc(C#N)cc3)cc1)[C@@H](CO)N2CCC(F)(F)F	-4	1
C[C@H](CO)N1C[C@H](C)[C@H](CN(C)CC2CC2)Oc2ccc(NC(=O)C3CC3)cc2C1=O	1	4
CN(C)C(=O)c1cc2c(c(-c3cccc(-c4ccccc4)c3)n1)[C@H](CCO)N([S@@](=O)C(C)(C)C)C2	15	13
Cc1ccc(S(=O)(=O)Nc2ccc3c(c2)C(=O)N([C@@H](C)CO)C[C@@H](C)[C@H](CN(C)C(=O)Nc2cccc4ccccc24)OCCCC[C@H](C)O3)cc1	17	17

Part of the list above, as labelled records.
C[C@@H]1CN([C@H](C)CO)S(=O)(=O)c2ccc(Br)cc2O[C@@H]1CN(C)Cc1ccccc1
  Vaccinia stage = ?; Vaccinia stage Venus = /

COc1ccc(S(=O)(=O)N(C)C[C@@H]2OCCCC[C@@H](C)Oc3ccc(NS(=O)(=O)c4cn(C)cn4)cc3C(=O)N([C@@H](C)CO)C[C@H]2C)cc1
  Vaccinia stage = 18; Vaccinia stage Venus = 3

Not all compounds are listed; rates above refer to the full screens.
